Screening data (PubChem BioAssay)
bIAP activator – bovine intestinal alkaline phosphatase activators, primary screen, biochemical, bovine IAP, CDP-star luminescence. purified bovine IAP, 30 min; hits give high values; fold of DMSO-control signal, blank-subtracted. AID 1016, 2008. activation factor at 20 µM. actives 0.17% (n = 200,000);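 active = activation factor of 2 or more at 20 µM, a signal rise over negative controls twice the positive control's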
NF-kB neuron act – activators of NF-kB expression in neurons, primary screen, cell-based, HTS. fold change at 12.5 µM. actives 1.6% (n = 190,000). human neuronal cells, NF-kB reporter expression; hits give high values; in the data active = fold change above about 3.3
FLuc inh counter – firefly luciferase enzyme inhibitors, primary screen, artefact control for luciferase-based inhibitor screens, biochemical, luminescence, ATPLite; Luciferin 4-monooxygenase (Photinus pyralis), P08659; 10 min; inhibition, % at 10 µM; actives 1.5% (n = 200,000); AID 1006, 2008;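 active = inhibition above about 50% when tested at 10 µM, limit read from the data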
Target sequence (P08659 whole entry, looked up): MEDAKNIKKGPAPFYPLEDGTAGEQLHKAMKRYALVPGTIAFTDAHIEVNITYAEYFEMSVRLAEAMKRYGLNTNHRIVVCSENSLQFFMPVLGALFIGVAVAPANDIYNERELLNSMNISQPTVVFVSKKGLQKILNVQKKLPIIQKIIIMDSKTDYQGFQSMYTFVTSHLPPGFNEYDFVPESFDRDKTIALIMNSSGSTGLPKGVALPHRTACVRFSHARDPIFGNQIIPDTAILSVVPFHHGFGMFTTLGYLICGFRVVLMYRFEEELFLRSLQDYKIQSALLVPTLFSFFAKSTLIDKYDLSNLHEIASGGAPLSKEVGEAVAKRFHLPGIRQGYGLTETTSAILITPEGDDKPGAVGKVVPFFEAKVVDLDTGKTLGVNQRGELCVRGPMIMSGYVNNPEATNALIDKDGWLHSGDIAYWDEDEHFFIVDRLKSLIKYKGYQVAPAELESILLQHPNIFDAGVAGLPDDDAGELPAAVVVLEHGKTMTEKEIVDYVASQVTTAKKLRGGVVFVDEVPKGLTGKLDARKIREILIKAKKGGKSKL
FLuc stim CS – FLuc activators, initial screening, artefact control for FLuc-dependent activation tests, biochemical, ATPlite luminescence; 200,000 tested, under 10 active; activation factor at 10 µM; ATPlite luciferase biochemical, 10 min; 0 = ATP-free wells, 1 = DMSO control;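 active = luciferase activation factor, scaled between plate controls, of at least 2 with compound at 10 µM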
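assay system = Luciferase/luciferin detection reagent, cell-free biochemical luciferase assay | also added = ATP substrate | times = 10 min post-reagent at room temperature | measured by = luminescence from luciferase reaction | measure = luciferase activation, seen as luminescence increase over controls | benchmarks = low control with PBS replacing ATP, high control enzyme plus ATP without compound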
APP 5'UTR act – activators of APP 5'UTR luciferase reporter, primary screen, SH-SY5Y cells | SH-SY5Y APP 5'UTR luciferase reporter, luminescence; zero percent = DMSO vehicle wells | activation, % at 2 µM | actives 1% (n = 190,000);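 active = activation above a set limit, based on mean plus 3 SD of controls, cut at about 140% in these data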; also: values of inactives mirror those of a sister screen read the other way
TNAP inh no acc – human TNAP enzyme inhibitors, primary screen, biochemical, luminescent, no phosphate acceptor, uHTS | Alkaline phosphatase, tissue-nonspecific isozyme (Homo sapiens), P05186 | purified TNAP, CDP-star luminescence, 30 min | inhibition, % at 20 µM | actives 0.26% (n = 200,000) | AID 1012, 2008;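 active = tissue-nonspecific alkaline phosphatase inhibition above about 50% at 20 µM in the single-dose screen, limit read from the data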;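 also: 0% = DMSO negative control and 100% = EDTA positive control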
Target sequence (P05186 whole entry, looked up): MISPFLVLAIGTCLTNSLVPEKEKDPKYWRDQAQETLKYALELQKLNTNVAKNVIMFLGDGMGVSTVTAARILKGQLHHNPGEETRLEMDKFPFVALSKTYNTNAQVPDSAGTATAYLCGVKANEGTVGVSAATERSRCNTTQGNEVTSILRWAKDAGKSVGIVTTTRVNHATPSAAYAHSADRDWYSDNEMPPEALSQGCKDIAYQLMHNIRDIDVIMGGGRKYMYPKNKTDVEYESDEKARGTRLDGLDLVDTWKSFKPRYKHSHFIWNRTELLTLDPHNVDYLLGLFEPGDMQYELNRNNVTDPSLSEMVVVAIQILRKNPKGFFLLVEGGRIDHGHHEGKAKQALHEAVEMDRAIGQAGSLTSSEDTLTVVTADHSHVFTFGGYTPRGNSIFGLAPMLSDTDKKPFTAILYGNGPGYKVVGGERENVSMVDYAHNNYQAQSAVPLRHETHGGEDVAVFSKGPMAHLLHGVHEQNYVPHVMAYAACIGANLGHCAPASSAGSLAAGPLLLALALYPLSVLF
TNAP inh hiacc – human TNAP enzyme inhibitors, primary screen, biochemical, luminescent, high phosphate acceptor level, uHTS | purified TNAP, CDP-star luminescence, 1 M DEA | actives 0.03% (n = 200,000) | inhibition, % at 20 µM;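 active = over 50% inhibition of tissue-nonspecific alkaline phosphatase at 20 µM in the single-dose screen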;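 also: plate controls were DMSO wells for no effect and EDTA-quenched wells as full inhibition for full effect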
TNAP act hi DEA – TNAP activators at high phosphate acceptor level, primary screen, biochemical, luminescence, uHTS | purified TNAP, CDP-star luminescence, 1 M DEA, 30 min; hits give high values; 0 = EDTA background, 1 = DMSO-only activity | Alkaline phosphatase, tissue-nonspecific isozyme (Homo sapiens), P05186 | AID 1136, 2008 | 200,000 tested, under 10 active | activation factor at 20 µM;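 active = activation factor at least 2 at 20 µM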
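Assay system: human TNAP; Input: enzyme diluted 1/800 final; Reagent: CDP-star luminogenic substrate at 100 µM final; Timing: 30 min, room temperature; Signal: luminescence; Evaluation: TNAP activation factor scaled between EDTA and DMSO control wells.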
An asterisk follows results filed as active; x = no result given.

SMILES	bIAP activator	NF-kB neuron act	FLuc inh counter	FLuc stim CS	APP 5'UTR act	TNAP inh no acc	TNAP inh hiacc	TNAP act hi DEA
Cc1ccc2c(c1)NC(=O)c1cccnc1N2	1	2.9	21	0.8	54	-7	-6	1.1
CCc1cccc2c(C=C(C#N)C#N)cn(CC(=O)N3CCCCCC3)c12	1	0.92	-3	1	9	-4	1	1
Cc1cccc(C)c1NC(=O)CSc1nnc(-c2ccccc2)n1Cc1ccc2c(c1)OCO2	1	0.95	3	1	19	-10	-3	1
COc1ccc(OC)c(NC(=O)CSc2nc3ccccc3cc2Cc2ccccc2)c1	0.8	0.95	0	1	4	-6	-2	1
Cc1c(NCc2cc(Cl)ccc2O)c(=O)n(-c2ccccc2)n1C	1	0.79	-3	1	-4	-10	-6	1.1
CCC(C)[C@H](NC(=O)OC(C)(C)C)c1nnc(SCc2c(C)[nH]c(=O)[nH]c2=O)o1 (stereo partly specified)	1	0.92	1	1	9	-5	-6	1.1
COc1cccc(CNCCc2c[nH]c3ccccc23)c1OCc1ccccc1F	1.2	0.72	-4	1	4	1	-5	1
C=CCOc1c2ccc(C(=O)NCc3ccccc3OC)cc2nn1C	1	0.86	-3	1	-8	-11	-4	1
Cc1nnsc1NC(=O)OCc1ccc(C(F)(F)F)cc1	0.9	1.3	-8	1.1	12	-11	-3	1
CC(=O)c1c(C)[nH]c(C(=O)COc2cc(C)cc(C)c2)c1C	1	0.88	-7	1.1	9	-14	-6	1.1

Structural class: the entries above containing fluorine (two)
SMILES	bIAP activator	NF-kB neuron act	FLuc inh counter	FLuc stim CS	APP 5'UTR act	TNAP inh no acc	TNAP inh hiacc	TNAP act hi DEA
COc1cccc(CNCCc2c[nH]c3ccccc23)c1OCc1ccccc1F	1.2	0.72	-4	1	4	1	-5	1
Cc1nnsc1NC(=O)OCc1ccc(C(F)(F)F)cc1	0.9	1.3	-8	1.1	12	-11	-3	1

Continuation.
SMILES	bIAP activator	NF-kB neuron act	FLuc inh counter	FLuc stim CS	APP 5'UTR act	TNAP inh no acc	TNAP inh hiacc	TNAP act hi DEA
O=C(COC(=O)C1CCN(S(=O)(=O)c2cc([N+](=O)[O-])ccc2Cl)CC1)Nc1ncc(Cl)cc1Cl	1	0.72	6	0.9	-8	4	6	0.9
COC(=O)c1cc(OC)ccc1-c1ccc(OC)cc1	0.9	1.1	-4	1	14	-4	-2	1
COc1ccc(C(=O)Nc2ccc(NC(=O)c3cnccn3)cn2)cc1	1.1	1	2	1	-11	-9	0	1
Cc1cc(C(F)F)n2ncc(C(=O)O)c2n1	1	1.5	-2	1	28	-4	2	1
CC(=O)NNc1nc2ccccc2s1	1.2	1.1	-7	1.1	1	-1	0	1
CCOc1ccccc1C(=O)N1CCOCC1	0.9	0.93	-4	1	25	-14	-3	1
Cc1ccc(C(=O)Nc2cc3c(cc2Cl)OCCCO3)cc1	0.9	4.1*	29	0.7	118	-12	-9	1.1
Cc1cccnc1NC1(C(F)(F)F)N=C(c2ccccc2)NC1=O (stereo unspecified)	1.1	0.96	-6	1.1	-13	-6	-1	1
O=C1c2ccccc2C(=O)c2c1ccc(C(=O)N1CCCCC1)c2NCCO	0.7	0.35	4	1	-3	13	20	0.8
O=C(NC(Cc1c[nH]c2ccccc12)c1nnc2n1CCCCC2)c1ccccc1Cl (stereo unspecified)	0.9	1.2	-2	1	-6	-4	-7	1.1
O=C(Nc1ccsc1C(=O)NC1CC1)c1ccccc1	0.7	0.97	-7	1.1	-5	-1	-1	1
Cc1ccccc1-n1ncc2c([N+](=O)[O-])cc([N+](=O)[O-])cc21	0.9	0.81	-5	1	8	-14	-3	1
O=C(CCCNC(=O)/C(=C\c1ccccc1F)NC(=O)c1ccccc1)OCc1ccccc1	0.9	1.5	-3	1	-14	-9	-2	1
O=C(CP(=O)(c1ccccc1)c1ccccc1)Nn1cnnc1	1	1.4	-6	1.1	-2	-7	-5	1.1
CC(=O)Nc1cc(C(=O)N2CCCC2)ccc1S(=O)(=O)c1ccc(C)cc1	1	1.1	-7	1.1	4	-8	-2	1
N#CC1=C(N)Oc2cc(Nc3ccccc3)ccc2C1c1ccncc1 (stereo unspecified)	1	0.76	-5	1.1	7	1	-3	1
CC(CC(=O)Nc1nc2ccccc2[nH]1)c1ccccc1 (stereo unspecified)	1	2.5	25	0.8	123	-19	-5	1
CCOC(=O)c1cnc2cc3c(cn2c1=O)CCCC3	1	1.6	18	0.8	32	-11	-3	1
Cc1ccc(S(=O)(=O)CCc2nnc(N)s2)cc1	1.1	1.2	-7	1.1	-13	2	-3	1
O=C(Nc1ccc(/C=C/c2nc3ccccc3o2)cc1)c1ccc(F)cc1	0.9	0.92	-2	1	6	-6	-1	1
CC(=O)NS(=O)(=O)c1ccc(NC(=S)NC(=O)c2ccco2)cc1	1	1.3	-6	1.1	9	-7	1	1
CC(C)N(CCCNC(=O)C1CCN(S(=O)(=O)N2CCOCC2)CC1)Cc1ccccc1	1	0.94	-7	1.1	-1	-14	-10	1.1
NS(=O)(=O)c1ccc(CNC(=O)/C=C/c2ccccc2)cc1	0.9	1.2	-9	1.1	12	10	-2	1
CCCN1C(=O)/C(=C/c2ccc(C)o2)SC1=Nc1ccc(OC)cc1	0.9	1.1	-5	1	-10	-3	2	1
CC(=O)N1N=C(c2ccc3nccnc3c2)CC1c1ccccc1 (stereo unspecified)	1	0.98	-6	1.1	-14	-9	-1	1
COc1ccc(Oc2coc3cc(OC(=O)c4cccs4)ccc3c2=O)cc1	0.9	1.2	-5	1.1	10	-7	-2	1
COc1ccc2nc(C)cc(SCC(=O)Nc3c(C)cc(C)cc3C)c2c1	1.4	1.1	-3	1	-13	-346	-20	1.2
O=C(CCCNC(=O)/C(=C/c1ccccc1F)NC(=O)c1ccccc1)OCc1ccccc1	1	1	-6	1.1	7	-2	-8	1.1
O=C(O)C1C2C=CC(C2)C1C(=O)N1CCN(C/C=C/c2ccccc2)CC1 (stereo unspecified)	1	1.1	2	1	3	0	3	1
Cc1ccc2[nH]c(C)c(/C=N/Nc3nc4ccccc4s3)c2c1	0.9	0.72	-6	1.1	90	9	-3	1

Looked up above:
COc1ccc(Oc2coc3cc(OC(=O)c4cccs4)ccc3c2=O)cc1 in bIAP activator shows 0.9
NS(=O)(=O)c1ccc(CNC(=O)/C=C/c2ccccc2)cc1 in bIAP activator shows 0.9
CC(=O)N1N=C(c2ccc3nccnc3c2)CC1c1ccccc1 (stereo unspecified) in FLuc inh counter shows -6
O=C(CCCNC(=O)/C(=C/c1ccccc1F)NC(=O)c1ccccc1)OCc1ccccc1 in APP 5'UTR act shows 7
O=C(O)C1C2C=CC(C2)C1C(=O)N1CCN(C/C=C/c2ccccc2)CC1 (stereo unspecified) in TNAP inh hiacc shows 3

Remaining list, next part
SMILES	bIAP activator	NF-kB neuron act	FLuc inh counter	FLuc stim CS	APP 5'UTR act	TNAP inh no acc	TNAP inh hiacc	TNAP act hi DEA
Cc1c(OCC(F)(F)F)ccnc1CSc1nc2ccccc2[nH]1	1.2	3.1	4	1	59	-6	-1	1
CC(NC(=O)C(=O)NN=C1CCCCCC1)c1ccccc1 (stereo unspecified)	1	1.2	-7	1.1	1	-3	-2	1
CN(NC(=O)NN)c1ncc(C(F)(F)F)cc1Cl	1	1.1	-2	1	4	-6	-2	1
CCc1cc(=O)oc2cc(OCC(=O)N3CCCc4ccccc43)ccc12	0.9	1.7	-3	1	8	-5	-2	1
C[C@H](NC(=O)Cn1cncn1)c1ccccc1	1	1.3	-2	1	-2	-8	-4	1
COc1ccc(Br)cc1C(=O)Nc1ccc(Cc2ccncc2)cc1	1	1.2	-8	1.1	10	-4	-2	1
C/C(=N\Nc1nc(N)cc(Cl)n1)c1cccc([N+](=O)[O-])c1	1	0.58	4	1	x	-9	-5	1
CCN1CCN(CCC(=O)Nc2cccc(OC)c2)CC1	1	1.1	-7	1.1	26	-1	-2	1
COc1ccc2c(c1)-c1nc(NC(=O)c3cccs3)sc1CC2	0.8	0.88	-3	1	38	-11	-4	1
N#CNC1=NCN(CCc2ccccc2)CN1	1	1.2	-7	1.1	-2	-10	-5	1

Retrieved one by one from the entries so far:
SMILES	bIAP activator	NF-kB neuron act	FLuc inh counter	FLuc stim CS	APP 5'UTR act	TNAP inh no acc	TNAP inh hiacc	TNAP act hi DEA
CN(NC(=O)NN)c1ncc(C(F)(F)F)cc1Cl	1	1.1	-2	1	4	-6	-2	1
C[C@H](NC(=O)Cn1cncn1)c1ccccc1	1	1.3	-2	1	-2	-8	-4	1
CCN1CCN(CCC(=O)Nc2cccc(OC)c2)CC1	1	1.1	-7	1.1	26	-1	-2	1

Remaining list, next part.
SMILES	bIAP activator	NF-kB neuron act	FLuc inh counter	FLuc stim CS	APP 5'UTR act	TNAP inh no acc	TNAP inh hiacc	TNAP act hi DEA
Cc1ccc(C)c(Nc2c([N+](=O)[O-])cc(C(=O)N3CC(=O)Nc4ccccc43)cc2[N+](=O)[O-])c1	0.9	0.61	-9	1.1	-3	14	5	0.9
Cc1ccc(SCC(=O)N2c3ccccc3Sc3ccccc32)cc1	0.6	0.79	-6	1.1	-22	-10	-9	1.1
COc1ccc2oc(-c3ccc(C)c(NC(=O)CSc4ccc(Cl)cc4)c3)nc2c1	1	1.1	1	1	19	-11	-2	1
COCCN1CSC(=S)N(Cc2ccco2)C1	1	0.95	-8	1.1	10	-16	-3	1
COc1ccc(C(=O)N/C(=C/c2cccs2)c2nc3ccccc3[nH]2)cc1OC	0.9	1.3	-5	1	8	-15	-2	1
CCCCCCCC(=O)NNC(=O)CCC(=O)O	1	1.2	-4	1	6	-5	0	1
C=CCn1ncc(OC)c(Cl)c1=O	1	1.1	-4	1	-15	-5	2	1
Cc1ccc(NC(CNS(=O)(=O)c2ccc(Cl)cc2)c2ccccc2)cc1 (stereo unspecified)	0.9	0.92	-2	1	10	-3	0	1
COc1ccccc1N/C(=N/S(=O)(=O)c1ccc(C)cc1)c1ccc(Cl)cc1	0.9	1	-9	1.1	7	-8	-5	1
CCOC(=O)c1ccc(N=C2S/C(=C\c3cc(C)n(-c4cccnc4)c3C)C(=O)N2C)cc1	1	0.83	-4	1	-17	-2	-1	1
CCCC(=O)N1CCN(S(=O)(=O)c2cc(Cl)ccc2OC)CC1	1	1.2	-6	1.1	15	-9	-3	1
Cc1nc2c(C)cccn2c1/C(O)=C1\C(=O)C(=O)N(CCN(C)C)C1c1ccncc1 (stereo unspecified)	1	0.95	-5	1.1	16	-4	1	1
CCCc1cc(=O)oc2cc(OCC(=O)N3CCc4ccccc43)ccc12	1	1.1	-5	1.1	4	-9	-6	1.1
Cc1ccc(-c2cnn(-c3cccc(C(F)(F)F)c3)c2N)cc1	0.9	2.4	10	0.9	134	-15	-6	1.1
CCN1CCN(C(c2cccs2)C(C)NC(=O)c2cccnc2)CC1 (stereo unspecified)	1	1.2	-5	1.1	2	-9	-4	1
COC(=O)CC1C(=O)NCCN1C(=O)Nc1ccc(Cl)cc1 (stereo unspecified)	1	0.85	-3	1	5	-10	-3	1
COc1ccc(C(=O)/C=C/Nc2ccc(NC(C)=O)cc2)cc1OC	1	0.99	-4	1	-9	5	0	1
CCn1c(SCc2c(Cl)cccc2Cl)nnc1-c1nn(-c2ccccc2)ccc1=O	1	1.4	-8	1.1	-5	-8	-4	1
Oc1ccccc1/C=N/n1c2ccccc2c2ccccc21	1	0.99	-6	1.1	1	-9	-6	1.1
CCCCn1nc2cc(C(=O)NC[C@@H]3CCCO3)ccc2c1OCC	1	1.1	-5	1.1	1	-8	-3	1
O=C(NC1CCCCC1)N1CCCC(c2nc(-c3cccs3)no2)C1 (stereo unspecified)	0.9	0.91	-4	1	16	-13	-6	1.1

This is a subset, so the mix of outcomes need not match the whole.
